RGS16-Gao HTS = modulators of RGS16 binding to Galphao, primary screen, biochemical, human proteins, multiplexed bead flow cytometry. binding response (% of control), % at 10 µM. actives 0.38% (n = 220,000). bead-based flow cytometry RGS16-Galphao binding, fluorescence; actives lie on both sides. AID 1441, 2008. Regulator of G-protein signaling 16 (Homo sapiens) + Guanine nucleotide-binding protein …;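 active = below 25% or above 175%, edge rows of some plates excepted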;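 also: Galphao activated by GDP with aluminum fluoride before binding; 100% = wells without compound and 0% = beads without RGS; some results beyond the cut were filed as inactive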
Target sequence (O15492 whole entry, looked up): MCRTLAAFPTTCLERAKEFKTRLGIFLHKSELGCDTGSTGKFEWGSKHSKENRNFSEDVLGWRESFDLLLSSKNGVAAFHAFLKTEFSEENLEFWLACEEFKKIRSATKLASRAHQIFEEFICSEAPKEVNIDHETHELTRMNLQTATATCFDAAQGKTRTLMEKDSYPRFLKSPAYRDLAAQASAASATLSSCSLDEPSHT
Target sequence (P09471 whole entry, looked up): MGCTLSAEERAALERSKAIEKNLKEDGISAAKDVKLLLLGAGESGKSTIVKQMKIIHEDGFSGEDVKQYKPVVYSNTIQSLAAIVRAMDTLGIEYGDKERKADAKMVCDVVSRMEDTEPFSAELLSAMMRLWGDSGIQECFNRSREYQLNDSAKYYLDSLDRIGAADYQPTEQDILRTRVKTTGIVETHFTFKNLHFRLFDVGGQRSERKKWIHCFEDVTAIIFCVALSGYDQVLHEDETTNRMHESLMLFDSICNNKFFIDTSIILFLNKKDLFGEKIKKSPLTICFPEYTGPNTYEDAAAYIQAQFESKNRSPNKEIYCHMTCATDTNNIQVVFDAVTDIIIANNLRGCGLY
PKD1 kinase inh = inhibitors of human PKD1 kinase, biochemical, fluorescence polarization; PKD1 kinase fluorescence polarization assay; inhibition, %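 (about 10 µM by stock and volumes)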; AID 797, 2007; Serine/threonine-protein kinase D1 (Homo sapiens), Q15139; actives 0.056% (n = 200,000);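 active = inhibition of 50% or more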;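 also: controls were vehicle for no effect and a reference inhibitor for full effect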
HSV augment = enhancers of HSV replication in host cells, fold increase, host cell viability | AID 1956, 2009 | actives 0.005% (n = 220,000) | HSV replication augmentation in cells | maximum fold increase;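 active = peak rise of 1.5-fold or more in the series; tested in PC3 cells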;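 also: first round at 10 µM; read as green reporter fluorescence; hits show the peak of a series up to 25 µM; 1 = signal of infected wells without compound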
INS promoter inh = inhibitors of insulin promoter-driven GFP, primary screen, imaging, TRM-6 cells (human fetal islet line), eGFP reporter, cell count; reporter expression induced with tamoxifen; AID 1273, 2008; inhibition, % at 2 µM; actives 0.9% (n = 130,000);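 active = inhibition above the mean plus 3 SD, with well images judged a real hit on visual review, cut at about 60% in these data, passing the limit was not always enough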
GALR2 agonist = GALR2 receptor agonists, primary screen, cell-based | GALR2-expressing cells, agonist activation read-out | activation, %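 (tested at 5 µM)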 | actives 0.48% (n = 140,000) | AID 803, 2007;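 active = above mean plus 3 SD of all compounds, about 5% in these data, not always enough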;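 also: 0% = vehicle buffer wells and 100% = reference agonist at full effect; tested in CHO reporter cells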
Target sequence (O43603 whole entry, looked up): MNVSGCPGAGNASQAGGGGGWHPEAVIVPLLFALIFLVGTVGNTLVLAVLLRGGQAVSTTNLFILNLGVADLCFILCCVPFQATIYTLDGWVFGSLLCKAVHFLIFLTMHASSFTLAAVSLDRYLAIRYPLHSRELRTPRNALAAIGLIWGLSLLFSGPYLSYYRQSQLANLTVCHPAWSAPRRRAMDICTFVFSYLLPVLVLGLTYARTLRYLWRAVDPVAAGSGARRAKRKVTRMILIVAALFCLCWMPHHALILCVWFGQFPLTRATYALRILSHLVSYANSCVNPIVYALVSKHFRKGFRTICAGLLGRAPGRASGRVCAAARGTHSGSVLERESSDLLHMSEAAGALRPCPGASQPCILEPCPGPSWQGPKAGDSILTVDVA
INS promoter inh cell count = second read-out of INS promoter inh, no call of its own (marks repeat the call); normalized cell count, %; measured here: cell count, toxicity; reference of the scale not given here;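 cells exposed to compound for 48 h; stained nuclei by imaging scaled within each plate; lower means fewer cells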
HSV augment primary fold = second read-out of HSV augment, no call of its own (marks repeat the call); fold increase; compound at 10 µM; measured here: primary screen fold increase 10 uM; tested in PC3 cells;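 GFP signal in the first replicate; 1 = infected wells without compound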
* marks the source's active call; other numbers are inactive results; i = inactive; / = not tested or not shown. The order is random, and some 1.1% of all compounds hit somewhere here.

SMILES | RGS16-Gao HTS | PKD1 kinase inh | HSV augment | HSV augment primary fold | INS promoter inh | INS promoter inh cell count | GALR2 agonist
COCCN(Cc1cc2cc3c(cc2nc1Cl)OCO3)C(C)=O | 105 | 1 | i | 0.94 | 0 | 134 | /
Cn1c(=O)c2c(nc(SCCN3CCOCC3)n2Cc2ccccc2Cl)n(C)c1=O | 103 | -13 | i | 1 | / | / | -1.8
COc1ccc(CC2(CO)CCN(Cc3ccc4c(c3)CCO4)CC2)cc1 | 100 | 0 | i | 0.95 | / | / | /
CCCOc1c(Br)cc(C2C3=C(CCCC3=O)N(CC)C3=C2C(=O)CCC3)cc1OC | 92 | -7 | i | 0.8 | 6 | 141 | /
CC(C)c1ccc(NC(=O)C2C3C=CC4(CN(Cc5cccnc5)C(=O)C24)O3)cc1 (centres undefined) | 98 | -5 | i | 0.97 | -108 | 118 | /
COc1ccc(CC(=O)Nc2c3c(nn2-c2cccc(C)c2C)CS(=O)C3)cc1OC (centres undefined) | 97 | 3 | i | 0.88 | -40 | 114 | -3.5
COc1ccc(-c2nnc3ccc(SCC(=O)NCc4ccco4)nn23)cc1 | 99 | -7 | i | 1 | / | / | -1.1
O=C(c1c(F)cccc1F)N1CCN(c2cccc(C(F)(F)F)c2)CC1 | 96 | 10 | i | 1 | 15 | 72 | -0.4
O=C(Nc1ccccn1)c1ccc(=O)[nH]n1 | 97 | -4 | i | 0.92 | 44 | 121 | -1.2
NC(=O)N/N=C/c1cccc(C(F)(F)F)c1 | 100 | / | i | 1 | / | / | /
O=C(c1cccnc1)C1CCCN(Cc2nc(Cc3ccccc3F)no2)C1 (centres undefined) | 100 | 1 | i | 1 | 26 | 82 | /
CC1=NN(Cc2ccccc2)C(=O)C1C(c1ccc(Cl)cc1)C(C#N)C#N (centres undefined) | 96 | -10 | i | 0.91 | / | / | -0.6
COc1cccc(NC(=S)NCCN2CCOCC2)c1 | 101 | -11 | i | 1.1 | -3 | 75 | -0.3
O=C1NCC2=C1C(c1ccc(Br)cc1)Nc1ccccc1N2 (centres undefined) | 95 | 3 | i | 0.79 | / | / | -1.3
COc1ccc(NC(=O)COC(=O)CCCOc2ccc(Cl)cc2Cl)cc1Cl | 107 | -12 | i | 0.98 | 17 | 144 | -0.2
CCCN(CCC)S(=O)(=O)c1ccc(C(=O)Nc2cc3oc4ccccc4c3cc2OC)cc1 | 111 | -7 | i | 0.9 | / | / | 4.3
COc1ccc(-c2nnc(CSc3nc4ccccc4c(=O)n3CC3CCCO3)o2)cc1OC (centres undefined) | 98 | / | i | 0.86 | / | / | /
Nc1nc(-c2ccccc2)c(N=Nc2cccc3ccccc23)s1 | 99 | 10 | i | 0.77 | / | / | -0.5
COCC(C)OC(=O)C(C#N)c1nc2ccccc2nc1N1CCN(Cc2ccccc2)CC1 (centres undefined) | 97 | -1 | i | 0.96 | -11 | 70 | -1.3
Cn1c(CS(=O)Cc2c(Cl)cccc2Cl)nnc1SCc1ccc(Cl)cc1 (centres undefined) | 99 | 6 | i | 0.86 | 25 | 101 | -2.4
COC(=O)c1ccccc1NC(=O)Cn1cnc2c(cnn2-c2ccc(C)c(C)c2)c1=O | / | -9 | i | 1 | -175 | 109 | -1.5
CNC(=O)/C(C#N)=C/c1c(N(Cc2ccccc2)Cc2ccccc2)nc2c(C)cccn2c1=O | 111 | 16 | i | 1 | / | / | 0.4
CCc1ccccc1NC(=O)c1cccc(Oc2ccc([N+](=O)[O-])cc2Cl)c1 | 101 | 4 | i | 1.1 | -59 | 86 | -1.3
O=C1NC(=S)/C(=C\c2ccc(-c3ccccc3Cl)o2)S1 | 99 | -1 | / | / | -36 | 81 | -0.7
COc1ccc(C(=O)N2CCC(n3nnc4cc(F)ccc43)CC2)cc1OC | 97 | -2 | i | 0.86 | / | / | /
Cc1ccc(Oc2ncccc2N)c2c1CCC2 | 97 | / | i | 1.1 | / | / | /
Cc1ccc(CNC(=O)CSc2nc3n[nH]c(C)c3c(=N)n2-c2cccc(C)c2)cc1 | 95 | 3 | i | 0.97 | / | / | -0.6
CCCn1c(SCC(=O)N2CCc3ccccc32)nnc1-c1ccncc1 | 97 | -2 | i | 1 | -18 | 129 | 0.1
C#CCOCCOCCOCCNc1nc(N2CCN(C(=O)[C@H](CCC(=O)O)n3cc(C(N)CO)nn3)CC2)nc(N2CCN(C(=O)[C@H](CCCCN)n3cc(C(N)CC(C)C)nn3)CC2)n1 (some centres undefined) | 108 | / | i | 0.89 | / | / | /
COC(=O)C1=C(C(=O)OC)[C@@H]2N(Cc3ccccc3)c3ccccc3[C@@]23C[C@@H](C(=O)OC)N(C(=O)c2cccs2)C3=N1 | 100 | / | i | 0.99 | / | / | /
COc1cc(/C=N/O)cc(Br)c1OS(=O)(=O)c1ccc(C)cc1 | 102 | 9 | i | 0.9 | 20 | 95 | -1.8
CC(=O)Nc1ccc(Oc2ccc(-c3noc(C)n3)cc2)cc1 | 92 | 0 | i | 0.98 | 21 | 167 | 1.4
COc1ccc(CNC(=O)Nc2cccc(C(F)(F)F)c2)cc1OC | 99 | -4 | i | 0.94 | / | / | -0.9
CCC(C)NC(=O)CSc1nc2ccc(N3CCOCC3)cc2c(=O)n1CCc1ccccc1 (centres undefined) | 100 | -2 | / | / | 0 | 107 | -0.5
CC(=O)C1(C)N(O)C(C)(C)C(c2ccco2)=[N+]1[O-] (centres undefined) | 94 | -11 | i | 0.94 | 17 | 222 | -2.8
O=C(NCC1CCCO1)/C(=C\c1ccccc1)NC(=O)c1ccccc1 (centres undefined) | 107 | 2 | i | 0.98 | / | / | /
CC(C)=C1C2CCC1C(C(=O)Nc1sc(C)c(-c3ccc(C(C)C)cc3)c1C(N)=O)C2C(=O)O (centres undefined) | 108 | -9 | i | 0.85 | -23 | 90 | 0.4
COc1cc(OC)cc(C(=O)Nc2nnc(NC(=S)Nc3ccccc3)s2)c1 | 82 | -8 | i | 0.8 | 20 | 77 | -0.8
O=C(O)CCC(=O)Nc1ccc(Sc2ccc([N+](=O)[O-])cc2)cc1 | 115 | -5 | i | 1 | -50 | 92 | -1.2
CCc1nnc(NC(=O)c2sc3nc(C)cc(COC)c3c2N)s1 | 54 | 0 | i | 0.93 | 21 | 60 | /
Cc1ccc(-c2csc3nc4c5ccccc5c(NCCCN5CCOCC5)nn4c(=O)c23)cc1 | 104 | -4 | i | 0.82 | / | / | /
COc1ccc(NC(=O)CSC2CCCCC2)cc1 | 105 | -5 | i | 0.89 | -24 | 161 | -2.4
O=C(Nc1ccc(C(=O)N2CCCC2)cc1)c1ccccc1[N+](=O)[O-] | 106 | -3 | i | 0.95 | / | / | /
Cc1cc(N/N=C/c2ccc(O)cc2O)nc(-n2nc(C)cc2C)n1 | 102 | -10 | i | 0.71 | / | / | 2.7
COc1ccc(CC(=O)Nc2ccc(S(=O)(=O)N(C)C)cc2)cc1OC | 98 | -10 | i | 0.92 | 5 | 138 | -0.7
COc1ccc(-c2cc(-c3ccccc3)c(C#N)c(SCC(=O)Nc3ncc(C)s3)n2)cc1 | 106 | -1 | i | 0.89 | / | / | 0.2
O=C(CCC1N=C2c3ccccc3N=C(SCC(=O)NCc3ccco3)N2C1=O)NCc1ccco1 (centres undefined) | 99 | -7 | i | 0.97 | -36 | 116 | /
Cc1ccc(C(=O)N2CC(=O)Nc3ccc(F)cc3C2c2ccc(F)cc2)cc1[N+](=O)[O-] (centres undefined) | 102 | -1 | i | 0.89 | / | / | 0.9
O=C(CCCn1nnc2ccccc2c1=O)N[C@H](C(=O)O)c1ccccc1 | 97 | / | i | 0.99 | / | / | /
COc1cc(Br)cc(CNc2ccc(F)c([N+](=O)[O-])c2)c1O | 96 | -3 | i | 1 | 40 | 91 | /
COC(=O)c1ccc(NC(=O)CN2C(=O)C3C4C=CC(C4)C3C2=O)cc1 (centres undefined) | 115 | 1 | i | 1.1 | / | / | -1.4
CC(C)(C)CC(C)(C)Nc1c(-c2ccc(O)cc2)nc2cnccn12 | / | 2 | i | 0.91 | 56 | 108 | 0.5
Cc1cc(C)n2c(Br)c(CSc3nc4ccccc4o3)nc2n1 | 86 | 9 | i | 0.97 | / | / | -0.8
CCOc1ccc(/C=N/OCC(=O)NCc2ccco2)cc1 | 102 | 0 | i | 1.1 | / | / | /
NC(=O)N=Nc1c2[nH]c3ccccc3nc-2c2ccccc12 | 102 | / | i | 0.62 | / | / | /
CCCCNC(=O)CCSc1ccc(C)cc1 | 119 | 2 | i | 0.97 | -10 | 60 | 0.3
Oc1cccc(C(=S)N2CCCCC2)c1 | 91 | -4 | i | 0.84 | 20 | 115 | /
COc1ccc(/C=N/NC(=O)CCn2cnc(-c3ccccc3)c2-c2ccccc2)cc1OC | 107 | -6 | i | 0.87 | 45 | 27 | 0.9
COc1ccc(C(=O)Cn2nnc(-c3ccc(N4CCOCC4)cc3)n2)cc1OC | 101 | -6 | i | 0.86 | / | / | -0.6
COc1cc(SC)ccc1C(=O)NC1CCCCC1 | 101 | -5 | i | 0.87 | / | / | -0.7

3 entries from above, sorted by the value under RGS16-Gao HTS, largest number first.
SMILES	RGS16-Gao HTS
COc1ccc(C(=O)Cn2nnc(-c3ccc(N4CCOCC4)cc3)n2)cc1OC	101
O=C(CCC1N=C2c3ccccc3N=C(SCC(=O)NCc3ccco3)N2C1=O)NCc1ccco1 (centres undefined)	99
Oc1cccc(C(=S)N2CCCCC2)c1	91

Returning to the listing, starting 2 compounds before the break.
SMILES | RGS16-Gao HTS | PKD1 kinase inh | HSV augment | HSV augment primary fold | INS promoter inh | INS promoter inh cell count | GALR2 agonist
COc1ccc(C(=O)Cn2nnc(-c3ccc(N4CCOCC4)cc3)n2)cc1OC | 101 | -6 | i | 0.86 | / | / | -0.6
COc1cc(SC)ccc1C(=O)NC1CCCCC1 | 101 | -5 | i | 0.87 | / | / | -0.7
CCOC(=O)c1nnn(-c2nonc2-c2ccccc2)c1C | 99 | -3 | i | 0.97 | / | / | -0.4
Cc1cc(NC(=O)c2ccccc2Cl)n(C(C)(C)C)n1 | 94 | / | i | 1.1 | / | / | /
Cc1ccnc(NC(c2cccnc2)c2ccc3cccnc3c2O)c1 (centres undefined) | 85 | 1 | i | 0.98 | -33 | 67 | /
CCOC(=O)Cc1csc(NS(=O)(=O)c2ccc(Cl)cc2)n1 | 30 | -5 | i | 1 | 21 | 94 | -1.1
Cc1cc(C)nc(SCC(=O)Nc2ncc(C(F)(F)F)cc2Cl)n1 | 102 | 2 | i | 0.98 | / | / | -0.6
COC(=O)CSc1nc(SCc2ccc(C)cc2)nc2c1CCCC2 | 10 | -3 | i | 0.96 | -37 | 75 | -2.1
CCn1c(C)nc2cc(S(=O)(=O)C(F)(F)F)ccc21 | 83 | -4 | i | 0.79 | 39 | 133 | -0.9
N#CC1=C(N)OC2=C(CCC/C2=C/c2ccoc2)C1c1ccoc1 (centres undefined) | 83 | -4 | i | 1.1 | -73 | 41 | 2.3
COc1ccc(C2CC(=O)C3=C(C2)NC(C)=C(C(=O)Nc2ccccc2C)C3c2coc3ccc(C)cc3c2=O)cc1OC (centres undefined) | 107 | 2 | i | 0.92 | -47 | 116 | -1.7

Three structures from above, arranged by count of non-hydrogen atoms, ascending:
SMILES | RGS16-Gao HTS | PKD1 kinase inh | HSV augment | HSV augment primary fold | INS promoter inh | INS promoter inh cell count | GALR2 agonist
Cc1cc(NC(=O)c2ccccc2Cl)n(C(C)(C)C)n1 | 94 | / | i | 1.1 | / | / | /
N#CC1=C(N)OC2=C(CCC/C2=C/c2ccoc2)C1c1ccoc1 (centres undefined) | 83 | -4 | i | 1.1 | -73 | 41 | 2.3
Cc1ccnc(NC(c2cccnc2)c2ccc3cccnc3c2O)c1 (centres undefined) | 85 | 1 | i | 0.98 | -33 | 67 | /

From PubChem BioAssay
